# StopGo reporter: High Throughput Screening for Foot and Mouth Disease Virus Antivirals | human cells with a luciferase reporter of 2A StopGo recoding; control for the full effect not named in the record | AID 1159524, 2015 | Potency, µM (doses to about 57.9 µM), without a hit: at the highest dose signal change, negative = less light | 410,000 tested, 1.2% active; active = well fitted falling curve with a large enough effect; inconclusive = small, poorly fitted or top-dose-only effect; inactive = no such curve, though single readings can be large or run the other way; tested in HEK293T cells; note: % is set by controls: 0 for no effect and ±100 for the full control effect; nearly all actives have a fitted effect of over 45% in size; luciferase light after 4 h
# NS1 inh: qHTS Assay for Inhibitors of Influenza NS1 Protein Function; AID 2326, 2010; S. cerevisiae slowed by influenza A NS1, growth recovery by OD600; Potency, µM (titrated, usually from 46.1 µM), for inactives: top-dose activity, positive = more growth; 270,000 tested, 0.4% active; note: actives are rising curves; nearly all actives have a fitted effect of over 50% in size
#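 Read-out: OD600 growth recovery of NS1-expressing budding yeast. Cells grown overnight at 30C in -URA glucose medium, washed, resuspended and diluted 1:100 in 2% galactose assay medium, pH 6.0. Same strain lacking NS1 served as positive control.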
# RE007 growth inh: qHTS Assay for Inhibitors of the HIV-1 protein Vpr; S. pombe RE007 Vpr strain, BacTiter-Glo ATP luminescence, 24 h; control for the full effect not named in the record; 360,000 tested, 0.21% active; Potency, µM (series often up to 92.2 µM), inactives show top-dose activity change, negative = less growth; active = well fitted falling curve with a large enough effect; inconclusive = small, poorly fitted or top-dose-only effect; inactive = no such curve, though single readings can be large or run the other way;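 note: % is set by controls: 0 for no effect and ±100 for the full control effect; nearly all actives have a fitted effect of over 50% in size; the assay follows cell death caused by Vpr and the record does not say whether a fall means rescue or toxicity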
#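 Fission yeast strain RE007, carrying one chromosomally integrated HIV-1 vpr copy, was seeded at OD 0.01 in PMG+AL medium with 23 nL pinned compound. After 24 h at 30 °C and 99% humidity, viability was read by BacTiter-Glo luminescence.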
# SARS PLP yeast: qHTS of Yeast-based Assay for SARS-CoV PLP | S. cerevisiae expressing SARS-CoV PLpro, growth rescue; control for the full effect not named in the record | Potency, µM (titrated, usually from 32.9 µM), for inactives: at the highest dose activity, positive = growth rescue | 330,000 tested, 0.19% active | AID 485353, 2010; note: 0% is about no effect; nearly all actives have a fitted effect of over 55% in size; growth read by luminescence after 48 h
# Lassa entry inh: qHTS for Inhibitors of binding or entry into cells for Lassa Virus; Lassa virus pseudotype entry inhibition, cell reporter; control for the full effect not named in the record; Potency, µM (top dose mostly 37.9 µM), for the others: at the top dose activity change, negative = inhibition, usual class: inhibitors; 300,000 tested, 1.2% active; AID 540256, 2011; active means well fitted inhibition curve with a large enough effect; inconclusive means small, poorly fitted or top-dose-only effect, or effect the other way; inactive means flat fitted curve, though single readings scatter; tested in HEK293 cells; note: % is set by controls: 0 for no effect and ±100 for the full control effect; nearly all actives have a fitted effect of over 50% in size; luciferase read-out
# Cruzain Triton: qHTS Assay for Promiscuous and Specific Inhibitors of Cruzain (with detergent); AID 1478, 2009; Cruzipain (Trypanosoma cruzi), P25779; 200,000 tested, 0.43% active; Potency, µM, inactives show max response, negative = inhibition, most hits filed as inhibitors; purified cruzain, Z-FR-AMC fluorescence, 0.01% Triton; active = well fitted curve in the direction sought with a large enough effect; inconclusive = small, poorly fitted or top-dose-only effect, or another doubt; inactive = no such curve, though single readings can be large; an effect the other way counts as inactive or inconclusive;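 note: plate controls were neutral wells for no effect and buffer without enzyme for full effect; nearly all actives have a fitted effect of over 40% in size; top concentration of the series not given in the record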
# Target sequence (P25779 123-467 limits assumed): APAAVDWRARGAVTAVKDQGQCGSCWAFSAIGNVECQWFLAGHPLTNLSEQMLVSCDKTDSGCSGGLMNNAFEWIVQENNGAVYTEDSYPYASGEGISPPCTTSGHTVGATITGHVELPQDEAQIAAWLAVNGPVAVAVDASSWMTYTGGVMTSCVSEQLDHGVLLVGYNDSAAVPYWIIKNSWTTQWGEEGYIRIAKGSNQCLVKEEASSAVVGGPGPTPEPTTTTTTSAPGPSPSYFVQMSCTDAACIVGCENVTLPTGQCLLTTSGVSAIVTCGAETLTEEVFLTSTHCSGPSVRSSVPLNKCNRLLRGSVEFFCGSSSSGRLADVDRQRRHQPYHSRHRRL
#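 Enzyme 1.5 nM, Z-FR-AMC 2 uM, NaOAc 100 mM pH 5.5, DTT 5 mM, Triton X-100 0.01%; 15 min RT compound preincubation; kinetic ex360/em450, 60 s delta.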
# Marburg entry inh: qHTS for inhibitors of binding or entry into cells for Marburg Virus; Marburg virus pseudotyped entry inhibition, cell reporter; control for the full effect not named in the record; about a third of the inactives were read at about 46 µM; Potency, µM (titrated, usually from 37.8 µM), for the others: at the top dose activity change, negative = inhibition, actives largely listed as inhibitors; 300,000 tested, 1.8% active; AID 540276, 2011; active = well fitted inhibition curve with a large enough effect; inconclusive = small, poorly fitted or top-dose-only effect, or effect the other way; inactive = flat fitted curve, though single readings scatter; tested in HEK293 cells; about a fifth of its hits are not listed in these tables; note: % is set by controls: 0 for no effect and ±100 for the full control effect; luciferase read-out
# Cruzain inh noDet: qHTS Assay for Promiscuous and Specific Inhibitors of Cruzain (without detergent) | purified cruzain, Z-FR-AMC fluorescence, no detergent | Potency, µM, for inactives: max response, negative = inhibition, most hits filed as inhibitors | 200,000 tested, 2.3% active | AID 1476, 2009; active = well fitted curve in the direction sought with a large enough effect; inconclusive = small, poorly fitted or top-dose-only effect, or another doubt; inactive = no such curve, though single readings can be large; an effect the other way counts as inactive or inconclusive;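 note: plate controls were enzyme without inhibitor for no effect and buffer without enzyme for full effect; nearly all actives have a fitted effect of over 40% in size; top concentration of the series not given in the record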
#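 Detergent-free condition (0.00005% Triton X-100) in acetate buffer pH 5.5 with DTT. 1.5 nM enzyme and compound were pre-mixed 15 min, then 2 uM Z-FR-AMC substrate added; reaction progress from fluorescence change between first and third reads (60 s).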
# * marks the source's active call; other numbers are inactive results; ? = inconclusive; · = not tested or not shown; & = joins results of further samples; [ ] = remark or other dose. Unless noted, calls come from the whole dose curve; as a rule, active means well fitted rising curve with a large enough effect; inconclusive means small, poorly fitted or top-dose-only effect; inactive means no such curve, though single readings can be large or run the other way. Potency is the fitted concentration of half-maximal effect.
SMILES,StopGo reporter,NS1 inh,RE007 growth inh,SARS PLP yeast,Lassa entry inh,Cruzain Triton,Marburg entry inh,Cruzain inh noDet
Cc1ccccc1NC(=O)c1ccc2ccccc2c1,18%,-16%,2%,-8%,?,·,-16%,·
O=S(=O)(c1ccccc1)c1nc(-c2ccc(F)cc2)oc1N1CCCCCC1,0%,·,·,·,-29%[46.1 µM],-15%,?,6%
CC(=O)c1ccc(NC(=O)Cc2cccs2)cc1,2%,-2%,6%,3%,-26%[46.1 µM],·,?,·
O=C(c1ccco1)N1CCN(Cc2nc3ccccc3c(=O)n2-c2ccc(F)cc2)CC1,-16%,2%,5%,-3%,-4%,4.3%,6%,1%
O=C(Cn1cnc2ccc(Cl)cc2c1=O)c1cccs1,14%,-25%,1%,10%,-6%,-2.3%,-7%,-2%
COc1ccc(S(=O)(=O)N2CCN(c3cccc(C)c3C)CC2)cc1,-24%,-40%,-22%,-8%,·,-0.6%,·,-28%
CC(C)S(=O)(=O)c1csc(NC(=O)Nc2ccc(Cl)cc2)c1Cl,?,-6%,-15%,-6%,?,·,?,·
CCOc1ccc(C(=O)OCC(=O)NCc2ccco2)cc1OCC,-9%,-8%,14%,-2%,13%,2.1%,0%,-5%
O=C(Nc1ccc2c(c1)ncn2-c1ccccc1)c1ccco1,58%[activator],-57%,7%,-12%,-17%,-7.9%,-5%,-6%
CCCC(=O)c1ccc(N2CCC(C)CC2)c(F)c1,39%[activator],-4%,-5%,-14%,5%,-3.1%,?,-10%
CC1=NN(Cc2ccccc2)C(=O)/C1=C/c1ccc(N(C)C)cc1,4%,-26%,15%,-2%,-30%,-1.7%,-1%,10%
O=C(NC1CCCC1)C(c1ccccn1)N(Cc1ccc(F)cc1)C(=O)c1csnn1 (stereo unspecified),-18%,-9%,6%,-1%,-2%[46.1 µM],·,-9%[46.1 µM],·
COc1ccc(CNc2ccc(S(=O)(=O)N3CCN(C)CC3)cn2)cc1OC,-29%,·,-7%,0%,1%,·,1%,·
O=C(Nc1ccc(-c2cnco2)cc1)c1ccc(F)cc1F,54%[activator],-2%,-3%,-3%,?,·,6%,·
COc1ccccc1NC(=O)Nc1nc(CC(=O)NCc2c(F)cccc2F)cs1,-9%,·,0%,-1%,?,·,?,·
CCOC(=O)c1c(-c2cccc(C)c2)csc1NC(=O)c1c(-c2ccccc2)noc1C,-12%,?,-10%,4%,0.56µM*,-6.0%,0.32µM*,7.9µM*
O=C(NC(=S)Nc1ccc(CN2CCOCC2)cc1)c1ccc(-c2cccc(Cl)c2)o1,35µM*,-20%,-3%,0%,·,·,·,·
O=c1[nH]c2ccc(S(=O)(=O)Nc3ccc(-c4nnc5n4CCCCC5)cc3)cc2o1,-9%,-4%,2%,8%,-1%,-7.6%,12%,9%
CC1(C)C2([N+](=O)[O-])CN3CC1([N+](=O)[O-])CN(C2)C31CCCC1,6%,-12%,12%,3%,-13%,6.0%,-22%,-4%
O=C(Cc1ccccc1)NC1CCN(C(=O)NCc2ccccc2)CC1,-5%,3%,6%,-2%,-11%,0.7%,2%,3%
COCCNc1oc(/C=C/c2ccc(F)cc2)nc1S(=O)(=O)c1ccccc1,21%,21%,9%,-4%,·,·,·,·
COc1cccc(C(=O)Nc2nc(C)cs2)c1,23%,-16%,?,-1%,?,-5.2%,?,1%
COc1ccc(CNC(=O)CSc2nc3ccc(OC)cc3[nH]2)cc1,-21%,-6%,0%,1%,0%[46.1 µM],·,-12%[46.1 µM],·
COc1ccc(N2C(=O)/C(=C/c3cccs3)NC2=S)cc1,-9%,3%,?,-2%,0%,-16%,?,-3%
CCc1ccc(NC(=O)CC2C(=O)N(c3ccc(Cl)cc3)C(=O)N2Cc2ccco2)cc1 (stereo unspecified),6%,·,·,·,-27%[46.1 µM],-10%,·,-17%
Cc1cccc(NC(=O)CSc2ccc(-c3sc(-c4ccccc4)nc3C)nn2)c1C,14%,·,·,·,-1%[46.1 µM],-2.1%,·,-3%
Nc1nonc1C(=O)OCC(=O)c1ccc(Cl)cc1,-3%,1%,-7%,-3%,-6%,-0.9%,16%,4%
CC(=O)Nc1ccc(Nc2nnc(-c3ccc(O)cc3)c3ccccc23)cc1,-26%,-2%,1%,-2%,?,·,?,·
CSc1ccc(S(=O)(=O)N2CCC(C(=O)NCc3ccncc3)CC2)cc1,10%,-1%,-12%,-5%,·,·,19%[46.1 µM],·
COc1ccc(C(=O)CC(=O)C(=O)Nc2cccc([N+](=O)[O-])c2C)cc1,-20%,-3%,-11%,0%,?,·,-19%[46.1 µM],·
COc1c(C)cc(Br)cc1C(=O)NC(=S)Nc1ccc(Cl)c(C(=O)O)c1,67%[activator],·,-7%,0%,-19%,·,?,·
COc1ccc(NC(=O)C(OC(=O)c2ccc([N+](=O)[O-])o2)c2ccccc2)cc1Cl (stereo unspecified),51%[activator],14%,4%,2%,-4%,-3.4%,9%,?
COc1cc2cncc(Cc3ccccc3)c2cc1O,46%[activator],·,-9%,·,7%,·,·,·
Cc1nc(C)n(CC(=O)N2CCCC(C(=O)c3cccc4ccccc34)C2)n1 (stereo unspecified),11%,2%,-5%,0%,2%,·,-2%[46.1 µM],·
CC(=O)c1ccc(-n2c(CCC(=O)O)ccc2-c2ccc(C)cc2)cc1,0%,0%,7%,1%,27%[46.1 µM],·,-8%[46.1 µM],·
O=C(Nc1ccc(OCc2cc(=O)n3ccsc3n2)cc1)c1ccc(F)cc1,-6%,·,·,·,-1%[46.1 µM],0.5%,1%[46.1 µM],5%
CC(C)c1ccccc1NC(=O)c1cccc(NC(=O)c2ccccc2)c1,-21%,-13%,?,-11%,?,-2.9%,?,-10%
O=C1CC(c2ccc(F)cc2)c2cc3c(cc2N1)CCC3 (stereo unspecified),-10%,-9%,5%,-73%,-17%,-7.3%,?,-4%
CCCn1cc(C(CC(=O)O)C(=O)O)c2ccccc21 (stereo unspecified),19%,?,13%,1%,18%,2.0%,0%&0%,-10%
Cc1ccnc2nc(C(=O)NC3=NCCS3)nn12,12%,-8%,4%,9%,0%,-0.7%,7%,-7%
CCN1CCN(C(=O)c2cc3c(=O)n4ccccc4nc3n2Cc2ccccc2)CC1,·,-6%,·,-3%,·,-28%,·,26%
C=CCN1C(=NC(=O)CCCC(=O)O)SC2CS(=O)(=O)CC21 (stereo unspecified),1%,-6%,14%,-1%,?,0.6%,-5%,1%
C/C(=N\Nc1ccc([N+](=O)[O-])cc1)c1ccc(-n2nncc2C(C)(C)C)cc1,-24%,-7%,12%,-4%,-10%,-0.8%,8%[46.1 µM],-5%
Cc1ccccc1CNC(=O)c1ccccc1NS(C)(=O)=O,-4%,-1%,4%,0%,-2%,·,17%[46.1 µM],·
Cc1ccc(-n2nc3c(c2NC(=O)C2CCCC2)CS(=O)(=O)C3)cc1,-11%,-6%,-11%,2%,0%[46.1 µM],·,-18%[46.1 µM],·
Cc1ccc(NC(=O)c2ccc(-c3nn(C)c(=O)c4ccccc34)cc2)cc1,?,-55%,11%,4%,-12%,-8.0%,-23%,?
COc1ccc2cc(C(=O)NCc3ccccc3)c(=Nc3ccc(C(=O)O)cc3)oc2c1,-30%,·,1%,2%,26%,·,11%,·
Cc1nnc(SCC(=O)NC2CC2)n1CCc1ccccc1,?,3%,-7%,1%,-2%,2.2%,1%[46.1 µM],1%
CCCNC(=O)c1ccc2c(c1)ncn2-c1ccccc1OC,20%,-5%,-3%,1%,7%,-1.8%,3%,-5%
C/C(=N\NC(=O)CSCc1ccccc1Cl)c1cc(O)ccc1O,35%[activator],-1%,-7%,0%,·,·,·,·
# New compounds follow:
SMILES,StopGo reporter,NS1 inh,RE007 growth inh,SARS PLP yeast,Lassa entry inh,Cruzain Triton,Marburg entry inh,Cruzain inh noDet
CCN(CC)C(=O)C1CCN(S(=O)(=O)c2c(C)noc2/C=C/c2cccc(OC)c2)CC1,-11%,·,·,·,?,-6.6%,·,?
COCCN1CCN(C(=O)C2CCC(=O)N(CCc3cccc(F)c3)C2)CC1 (stereo unspecified),7%,18%,8%,1%,3%,·,15%,·
Cn1c(CNC(=O)CCNC(=O)c2cccc(Cl)c2)cc(=O)n(C)c1=O,-12%,-1%,3%,-3%,·,·,·,·
COc1cccc2c1Oc1ncccc1N(c1ccc(C(=O)NCc3ccccc3Cl)s1)C2,-11%,·,·,·,1%[46.1 µM],-25%,·,25µM*
COc1ccc(C)cc1NC(=O)CSc1nnc2ccc(-c3cccnc3)nn12,-21%,·,12%,·,?,·,-1%,·
[N-]=[N+]=Nc1ccc(C(=O)CSC[C@H](NC(=O)CC[C@H](N)C(=O)O)C(=O)NCC(=O)O)cc1,·,-9%,·,·,?,-1.2%,5µM*,?
CC(C)OCC(O)CN1CCN(CC(O)COc2ccc3c(c2)OCO3)CC1 (stereo unspecified),1%,-1%[9.22 µM],12%,2%,-14%,0.9%,11%,-12%
O=C(CSc1nc(N2CCCCC2)nc(N2CCCCC2)n1)N1CCc2ccccc21,·,-5%,·,1%,·,-3.7%,·,?
CN1CCN(CC(=O)Nc2ccc([N+](=O)[O-])cc2C(=O)c2ccccc2)CC1,12%,2%,2%,0%,1%[46.1 µM],·,?,·
C=CCn1c(C)cc(C(=O)CSc2n[nH]c(N)n2)c1C,51%[activator],1%,-14%,0%,19%,0.8%,?,1%
COc1cc(OC)cc(-n2nnnc2SCC(=O)Nc2nc3c(s2)CCCC3)c1,-12%,2%,4%,1%,-10%,1.5%,-20%,-24%
CSc1nncc(/C(C)=N\Nc2ccccc2)n1,19%,-76%,6%,-14%,-3%,6.5%,-17%,6%
CC1(C)CC(=O)C/C(=N\NC(=O)Cc2ccccc2)C1,-10%,-3%,-1%,15%,-4%,-0.4%,?,-18%

# From PubChem BioAssay
